miR-21 FLuc: qHTS Assay for Modulators of miRNAs and/orActivators of miR-21; HeLa miR-21 FLuc reporter, luciferase, 48 h; Potency, µM (highest dose often 38.3 µM), without a hit: at the highest dose reporter change, positive = more light; 340,000 tested, under 10 active; active = well fitted rising curve with a large enough effect; inconclusive = small, poorly fitted or top-dose-only effect; inactive = no such curve, though single readings can be large or run the other way;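 note: % of control where 0% means no effect; miR-21 action dims this reporter so a rising signal means less miR-21 action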
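HeLa miR-21-FLuc reporter line, endogenous miR-21; 2000 cells/well in DMEM/10% FBS; compound titration up to ~40uM final, 48 h, 37 degree Celsius; luciferase detection reagent, 15 min lysis, CCD luminescence.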
Rango complex inh: qHTS Assay for Inhibitors of Rango (Ran-regulated importin-beta cargo) - Importin beta complex formation; AID 540263, 2011; 0.031% of 340,000 active; Potency, µM (highest dose often 92.2 µM), for the others: at the top dose inhibition of complex formation; Rango CFP/YFP FRET sensor + importin beta, 45 min; Importin subunit beta-1 (Homo sapiens), Q14974; active = rising FRET ratio curve, often small or poorly fitted; inconclusive = mostly compound fluorescence or quenching in the first reads; inactive = flat curves in all reads;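 note: potency is the fitted concentration of half-maximal effect; 0% = DMSO wells and 100% = buffer wells lacking importin beta; nearly all actives have a fitted effect of over 15% in size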
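FRET biosensor (snurportin 1 IBB flanked by EYFP and cerulean), 50 nM, with compound 5 min, then 0.125 microM importin beta in PBS, 1 mM DTT, 0.02% Tween-20, 0.1% BSA. CFP/YFP ratio read after 45 min at room temperature; pre-read flags interference.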
GLA inh pH 4.5: qHTS Assay for Inhibitors of Human alpha-Galactosidase at pH 4.5; purified enzyme, 4-MU-alpha-Gal fluorescence, pH 4.5; activity change, negative = inhibition, % at 105 µM; 230,000 tested, under 10 active; AID 1467, 2008; inconclusive = small, poorly fitted or top-dose-only inhibition, or a rising curve; inactive = flat fitted curve, though single readings scatter; no compound was filed as active;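 note: 0% = full activity with enzyme and -100% = basal without enzyme; dose as in the result columns while the protocol names 77 µM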
Target sequence (P06280 whole entry, looked up): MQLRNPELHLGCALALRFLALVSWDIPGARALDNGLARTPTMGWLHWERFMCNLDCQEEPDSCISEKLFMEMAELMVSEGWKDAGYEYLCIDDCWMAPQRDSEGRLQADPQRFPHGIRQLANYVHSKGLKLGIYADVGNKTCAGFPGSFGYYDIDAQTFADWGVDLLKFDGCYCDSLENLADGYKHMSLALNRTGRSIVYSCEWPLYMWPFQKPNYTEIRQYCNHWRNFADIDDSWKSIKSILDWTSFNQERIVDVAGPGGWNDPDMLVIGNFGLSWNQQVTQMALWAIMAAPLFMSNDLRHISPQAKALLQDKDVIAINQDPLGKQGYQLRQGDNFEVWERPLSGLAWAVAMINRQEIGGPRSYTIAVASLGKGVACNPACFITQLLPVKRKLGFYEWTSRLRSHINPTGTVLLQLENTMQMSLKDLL
Rango dissoc inh: qHTS Assay for Inhibitors of RanGTP induced Rango (Ran-regulated importin-beta cargo) - Importin beta complex dissociation; Biochemical FRET Rango-importin beta, RanGTP-induced dissociation; Potency, µM (top dose mostly 46.1 µM), for inactives: at the highest dose activity change, negative = inhibition; Snurportin-1 (Homo sapiens) + GTP-binding nuclear protein Ran (Homo sapiens) + Importin …; 0.071% of 340,000 active; active means falling FRET ratio curve, often poorly fitted, with flat reads before Ran was added; inconclusive means other falling curves, or compound fluorescence or quenching; inactive means flat or rising ratio curve;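 note: potency is the fitted concentration of half-maximal effect; % of control where 0% means no effect; nearly all actives have a fitted effect of over 45% in size; -100% = wells without RanGTP and RCC1; the record marks most hits as doubtful in a second field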
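Quantitative HTS using a FRET biosensor: 0.1 uM Rango, 0.25 uM importin beta, 0.6 uM Ran, 2 mM GTP, 0.2 uM RCC1 final, PBS with DTT, Tween-20 and BSA. Post-read taken 45 min after Ran addition.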
Numbers without * were called inactive; ? = inconclusive; · = not tested or not shown; & = joins results of further samples.

Second line of a record – miR-21 FLuc | Rango complex inh | GLA inh pH 4.5 | Rango dissoc inh
- CCNC(=O)CN(c1ccc(OC)c(OC)c1)S(=O)(=O)c1ccccc1
  0% | 7.1% | 1 | -7%
- Cc1ccccc1NC(=O)CN1C(=O)N/C(=C\c2ccc(N3CCOCC3)c(F)c2)C1=O
  5% | ? | -3 | ?
- c1cnc2ccc3c(c2c1)COCO3
  · | 2.6% | · | -8%
- COc1ccc(C(=O)NC(C)c2nnc(SCC(=O)NC3=NCCS3)n2C)cc1 (stereo unspecified)
  1% | 0.6% | · | 1%
- COc1ccc(S(=O)(=O)Nc2ccccn2)cc1
  0% | 2.8% | · | -6%
- CCn1c(C)c(C)c2cc(C(=O)NCCCN3CCN(C)CC3)ccc21
  -5% | -4.8% | · | -3%
- O=C(NCCC1CCCCN1S(=O)(=O)c1cccs1)C(=O)Nc1ccc(F)cc1 (stereo unspecified)
  · | 4.2% | · | 0%
- CCS(=O)(=O)c1nc(S(=O)(=O)c2ccc(Cl)cc2)c(N2CCC3(CC2)OCCO3)s1
  7% | 2.8% | · | 10%
- Cc1ccc(SCC(=O)NCc2ccc(F)cc2)cc1
  -12% | 0.3% | -1 | 26%
- CCc1cc2c(=O)n(Cc3ccccc3)c(SC3CCOC3=O)nc2s1 (stereo unspecified)
  -1% | -1.6% | -5 | -12%

Second line of a record – miR-21 FLuc | Rango complex inh | GLA inh pH 4.5 | Rango dissoc inh
- COC(=O)c1cn(CC(=O)NC2CCCCC2)c2ccccc12
  -5% | 0.5% | 14 | -7%
- CN(C)S(=O)(=O)c1cccc(NC(=O)CSc2nncn2-c2ccccc2)c1
  8% | 0.1% | -12 | 7%
- CCN(CC)S(=O)(=O)c1cccc(NC(=O)COC(=O)/C=C/c2cccs2)c1
  -2% | -1.4% | -10 | -9%
- CCCc1nc(SC)[nH]c(=O)c1C
  -8% | 0.3% | 0 | 0%
- CC1CCCC(C)N1C(=O)COC(=O)CCC1CCCC1 (stereo unspecified)
  11% | -3.5% | · | 8%
- COc1ccc(NC(=O)CN(C)CC(=O)c2c(C)[nH]c3ccccc23)cc1
  · | 3.0% | · | 1%
- CN(C(=O)COC(=O)c1ccccc1C(=O)N(C)c1ccccc1)c1ccccc1
  1% | -1.1% | · | 4%
- CC(C)(C)C(=O)Nc1ccc(C(=O)COC(=O)C2CC2)cc1
  · | -1.5% | · | 4%
- O=[N+]([O-])C(/C=C(\Cl)[N+](=O)[O-])=C(N1CCCCC1)N1CCCCC1
  0% | 0.3% | -7 | 4%
- COc1ccc(NC(=O)CNS(=O)(=O)c2cccs2)c(OC)c1
  2%&-6% | 1.1% | 5 | -12%

Second line of a record – miR-21 FLuc | Rango complex inh | GLA inh pH 4.5 | Rango dissoc inh
- Cc1cccc(C)c1-n1cccc1/C=C1\SC(=S)N(c2cccc(C(=O)O)c2)C1=O
  -15% | -7.1% | 6 | -8%
- Cc1ccc(C(=O)Nc2ccc(N3CCOCC3)nc2N2CCOCC2)cc1
  -2% | 0.6% | -5 | -2%
- CCOc1c(Cl)cc(CNc2nnnn2C)cc1OC
  1% | 2.7% | · | 13%
- CCOC(=O)c1c(-c2ccccc2)csc1NC(=O)c1ccc(S(=O)(=O)N2CC(C)OC(C)C2)cc1 (stereo unspecified)
  -1% | -0.1% | -1 | 10%
- CC1(C)CC(=O)C(C(c2ccccc2F)C2C(=O)CC(C)(C)CC2=O)C(=O)C1
  0% | -0.5% | 3 | 1%
- COCCCn1c(SCc2cccc(OC)c2)nc2cc(OC)c(OC)cc2c1=N
  0% | -5.0% | -4 | 3%
- Cc1ccc2c(c1)CCCN2C(=O)Nc1ccc2c(c1)OCO2
  -42% | -1.4% | -3 | -2%
- CCOc1ccc2nc(/N=C/c3nc(-c4ccc(Br)cc4)oc3O)sc2c1
  -15% | ? | -7 | ?
- O=C(CCN1C(=O)c2cccc([N+](=O)[O-])c2C1=O)NC1CCCCCC1
  · | -0.7% | · | ?
- CCCc1cc(=O)[nH]c(SCC(=O)NCCN2C(=O)CSC2=O)n1
  · | -3.9% | · | 0%

Second line of a record – miR-21 FLuc | Rango complex inh | GLA inh pH 4.5 | Rango dissoc inh
- CCCCc1ccc(NC(=S)N2CCN(C(=O)c3ccco3)CC2)cc1
  1% | -2.9% | · | 1%
- Clc1ccccc1C1CC(c2ccccc2)Nc2ncnn21 (stereo unspecified)
  -3% | 3.0% | 4 | -8%
- COc1ccccc1Nc1nnc(SCC(=O)NC(=O)Nc2ccc3c(c2)OCCO3)s1
  -22% | 0.3% | 2 | 25%
- N#C/C(=C/c1ccccc1[N+](=O)[O-])c1nnc2n1CCCCC2
  -7% | -2.1% | 4 | -15%
- Cc1ccc(OCC(=O)N2N=C(C(F)(F)F)CC2(O)C(C)(C)C)cc1C (stereo unspecified)
  24% | 0.8% | -11 | -5%
- COc1ccc(S(=O)(=O)N2CCOCC2)cc1NC(=O)CCCOc1ccccc1
  · | 2.8% | · | -4%
- COc1ccc(NC(=O)CSc2nnc(-c3cnccn3)n2C)cc1OC
  0% | -0.8% | · | -1%
- O=C(CCn1nc(-c2ccc(Cl)cc2)c2ccccc2c1=O)NN1CCOCC1
  -4% | 1.5% | -2 | 9%
- O=C1CC(c2cccc(Br)c2)C2=C(COC2=O)N1 (stereo unspecified)
  5% | -0.3% | -1 | 17%
- CN1/C(=C\C=C2/SC(=S)N(CC(=O)O)C2=O)C(C)(C)c2ccccc21
  2% | 23µM* | 0 | ?

Second line of a record – miR-21 FLuc | Rango complex inh | GLA inh pH 4.5 | Rango dissoc inh
- COc1cc(C2c3[nH]c4ccccc4c3CCN2Cc2cn(C)nc2C)ccc1F (stereo unspecified)
  1% | ? | -1 | -24%
- O=C(Cn1c(CO)nc2ccccc21)Nc1ccccc1Cl
  0% | 0.4% | 1 | -10%
- Cc1ccc(N)cc1-n1c(C)ccc1C
  -16% | ? | -10 | ?
- Cc1ccc(O)c(NC(=O)c2noc(C(C)C)c2[N+](=O)[O-])c1
  -38% | -0.9% | 5 | -9%
- COc1ccc(Cc2c(N)nc(C)nc2N)cc1
  -6% | -0.1% | -1 | 8%
- CCOc1ccc(/C(CCC(=O)O)=N/NC(=S)NC(C)C)cc1
  -16% | 2.9% | -1 | 12%
- O=C(Nc1ccc(N2CCN(C(=O)c3ccco3)CC2)cc1)c1ccccc1Br
  -1% | 1.3% | · | 17%
- COc1cc(CNCc2cc(OC)c(OC)c(OC)c2)cc(OC)c1
  10% | 0.8% | · | 3%
- O=C(NC(=O)N1CCOCC1)c1ccccc1
  -12% | -0.7% | 1 | -1%
- CCCCN(C(=O)c1ccc([N+](=O)[O-])o1)c1c(N)n(CCCC)c(=O)[nH]c1=O
  · | ? | · | -22%

Second line of a record – miR-21 FLuc | Rango complex inh | GLA inh pH 4.5 | Rango dissoc inh
- C/C(=N\NC(=S)NC1CCCCC1)c1ccc(C#N)cc1
  -18% | 3.2% | 3 | -6%
- Fc1cc(F)c(NC(=S)N2CCOCC2)c(F)c1
  -6% | 1.7% | · | -5%
- COc1ccccc1CCNS(=O)(=O)c1ccc(C(=O)O)n1C
  -12% | -2.7% | 2 | -4%
- CCOc1ccccc1-n1nnnc1SCc1nc2ccccc2s1
  -36% | ? | -10 | 2%
- CCN(CC)c1ccc(NC(=O)Cn2cc3c(n2)CCC(C)C3)c(C)c1 (stereo unspecified)
  7% | 4.1% | -5 | 1%
- O=C(O)Cc1sc(-c2cccnc2)nc1-c1ccc(Br)cc1
  2% | 7.4% | 1 | -4%
- CC1CCN(C(=O)c2ccc(N3CCOCC3)c([N+](=O)[O-])c2)CC1
  · | -0.6% | · | -3%
- O=C(NCC1CC1)Nc1cccc(C(F)(F)F)c1
  -9% | 0.8% | · | -1%
- Cn1c(=O)c2c(nc(NCCNC(=O)c3ccco3)n2Cc2ccccc2F)n(C)c1=O
  -2% | 0.4% | · | 13%
- COc1ccc(C/C(C)=N/NC(=O)C2COc3ccccc3O2)cc1 (stereo unspecified)
  13% | -2.0% | 2 | 11%

mol	miR-21 FLuc	Rango complex inh	GLA inh pH 4.5	Rango dissoc inh
Cc1ccccc1-n1nnnc1Sc1nnnn1-c1ccccc1	?	-0.2%	9	-1%
COc1ccc(-c2nn(-c3ccccc3)cc2/C=C/C(=O)OCC(=O)Nc2cccc(C#N)c2)cc1	-13%	-1.4%	4	-2%
O=C(c1cc(Cl)ccc1O)N1CCN(S(=O)(=O)c2cccs2)CC1	·	-0.7%	·	6%
Cc1ccc(NC(=O)CCn2nnc3ccccc32)cc1	-52%	-1.9%	-15	-4%
O=C(O)c1ccc(NC(=O)c2ccco2)c(NC(=O)c2ccco2)c1	-1%	5.9%	·	15%
COCCCNc1ccc([N+](=O)[O-])cc1C(=O)Nc1cccc(C)n1	-2%	-0.1%	-12	-8%
O=c1c2ccccc2nc(SCc2ccccc2)n1CC1CCCO1 (stereo unspecified)	-6%	-2.3%	-3	15%
O=C(CSc1nnc2ccc3ccccc3n12)N1CCOCC1	-30%	0.1%	14	7%
COC(=O)c1cccc(CSc2nc3ccccc3[nH]2)c1	-12%	-5.6%	-1	35%
CC(C)(C)c1ccccc1OCC(=O)NCCCn1ccnc1	-7%	-2.7%	·	18%

mol	miR-21 FLuc	Rango complex inh	GLA inh pH 4.5	Rango dissoc inh
O=S1(=O)CC2SC(=S)N(c3ccccc3)C2C1 (stereo unspecified)	-1%	-2.5%	1	26%
O=C(NCCc1c[nH]c2ccccc12)C1CCN(c2nnc(N3CCCC3=O)s2)CC1	0%	-0.1%	-19	8%
COc1ccc(C(=O)c2coc(-c3ccccc3C(=O)O)c2C(=O)O)cc1	-28%	?	9	0%
CCc1cc2c(-c3ccccc3)cc(=O)oc2cc1OCC(=O)NCC1CCC(C(=O)O)CC1 (stereo unspecified)	-6%	-3.2%	·	21%
C/C(=N\NC(=O)c1cccc2ccccc12)c1ccccn1	-5%	0.9%	·	4%
Oc1cccc(Nc2ccccc2)c1	·	0.5%	·	5%
O=C(Sc1nnc(-c2ccccc2)o1)N1c2ccccc2Sc2ccccc21	-7%	-0.4%	-4	-12%
CC(C)(C)S(=O)(=O)c1cnc(N2CCCC2)nc1N	-6%	-1.3%	4	-4%
CCOC(=O)c1nnc(-c2ccc(C)cc2)nc1N1CCSCC1	-29%	0.7%	2	-7%
COC(=O)c1cc(S(=O)(=O)NCc2ccc(F)cc2)cn1C	0%	-1.9%	·	-14%

mol	miR-21 FLuc	Rango complex inh	GLA inh pH 4.5	Rango dissoc inh
Cn1c(CC(=O)Nc2ccc(Cl)c(Cl)c2)n[nH]c1=S	-5%	0.5%	-1	-14%
COc1ccccc1N1CCN(c2nc3ccccn3c(=O)c2C=O)CC1	-64%	-5.6%	1	13%
COc1ccc(-c2cc(C(=O)OCC(=O)NC(C)(C)C)c3ccccc3n2)cc1	1%	·	-8	·
CCOc1ccc(NC(=O)c2c(NC(=O)CN3CCCC3)sc3c2CCC3)cc1	3%	-1.3%	·	6%
CC(C)C[C@H](CO)N(Cc1ccccc1)S(=O)(=O)N(Cc1ccccc1)[C@@H](CO)CC(C)C	·	0.4%	·	-7%
CCn1nnnc1-c1ccc(OC)c(S(=O)(=O)Nc2ccc(C)c(C)c2)c1	-11%	-0.2%	1	13%

In another format: 3 of the compounds above.
miR-21 FLuc	Rango complex inh	GLA inh pH 4.5	Rango dissoc inh	Molecule
·	-3.9%	·	0%	CCCc1cc(=O)[nH]c(SCC(=O)NCCN2C(=O)CSC2=O)n1
1%	-2.9%	·	1%	CCCCc1ccc(NC(=S)N2CCN(C(=O)c3ccco3)CC2)cc1
-3%	3.0%	4	-8%	Clc1ccccc1C1CC(c2ccccc2)Nc2ncnn21 (stereo unspecified)

Bioassay records deposited in PubChem BioAssay by National Center for Advancing Translational Sciences (NCATS).

Not all compounds are listed. The share of hits here may be higher or lower than overall.
